CtBP-E1A inh: qHTS Assay for Inhibitors of the CtBP/E1A Interaction; CtBP / adenovirus E1A interaction (AlphaScreen); AlphaScreen GST-E1A/His-CtBP binding, 1536-well; stronger effect = lower value; control for the full effect not named in the record; activity change, % (no concentration beside the values); 340,000 tested, 0.49% active; AID 651724, 2012; in the data active means activity change below about -65%; inconclusive means about -30% to -65%; inactive means above about -30%; also: % is scaled to controls: 0 for no effect and ±100 for the full control effect; compound concentration not given in the record
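Protein mix (5X: 125 nM each GST-E1A, His-CtBP) was incubated with pinned compound 2 h at 37 deg C in dark, in 50 mM Tris pH 8.0 buffer with 300 mM NaCl. Glutathione donor and nickel acceptor beads followed; AlphaScreen signal read after 1 h.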
Sfp inh: qHTS Assay for Inhibitors of Bacillus subtilis Sfp phosphopantetheinyl transferase (PPTase); Biochemical Sfp PPTase activity, qHTS; Potency, µM, for the others: max response, negative = inhibition, most hits filed as inhibitors; 310,000 tested, 3.5% active; 4'-phosphopantetheinyl transferase ffp (Bacillus subtilis), Q9F4F7; AID 1490, 2009; active = well fitted inhibition curve with a large enough effect; inconclusive = small, poorly fitted or top-dose-only effect, or another doubt; inactive = no such curve, though single readings can be large or run the other way;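 also: the enzyme is Sfp with the accession as filed and its product quenches rhodamine fluorescence; potency is read from the fitted curve at half-maximal effect; 0% = enzyme reaction without inhibitor and -100% = no enzyme wells; top concentration of the series not given in the record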
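Reaction rates are the 30-min fluorescence difference (ex 525, em 598 nm) in wells containing 15 nM Sfp, 5 uM rhodamine-CoA and 12.5 uM BHQ-2-YbbR at pH 7.6 with 10 mM MgCl2.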
gsp agonist: qHTS for Agonist of gsp, the Etiologic Mutation Responsible for Fibrous Dysplasia/McCune-Albright Syndrome: qHTS. Potency, µM (titrated, usually from 76.9 µM), for the others: at the highest dose activation (cAMP increase), hits mostly activators. 340,000 tested, 0.13% active. gsp mutant cells, cAMP HTRF, 30 min; control for the full effect not named in the record; active = well fitted activation curve with a large enough effect; inconclusive = small, poorly fitted or top-dose-only effect, or another doubt; inactive = no such curve, though single readings can be large or run the other way; cell line not stated here;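 also: phosphodiesterase inhibitor Ro 20-1724 added with compounds to block cAMP breakdown; potency is read from the fitted curve at half-maximal effect; nearly all actives have a fitted effect of over 60% in size; about a fifth of the inactives were tested at one dose only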
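Cells stably selected in G418 were plated at 2000/well, grown 16-24 hr, then given compounds in DMSO with the PDE inhibitor […] (300 uM solution added) for 30 min at 37C; cAMP was read by HTRF.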
gsp antagonist: qHTS for Antagonists of gsp, the Etiologic Mutation Responsible for Fibrous Dysplasia/McCune-Albright Syndrome: qHTS; gsp-mutant cells, cAMP HTRF, 30 min; control for the full effect not named in the record; Potency, µM (titrated, usually from 76.9 µM), for the others: top-dose activity change, negative = inhibition, most hits filed as inhibitors; 340,000 tested, 0.4% active; active = falling curve of any shape with a large fitted effect; inconclusive = falling curve, mostly with a smaller effect; inactive = flat or rising curve; cell line not stated here;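 also: intracellular cAMP measured with PDE inhibitor Ro 20-1724 present during compound exposure; potency is read from the fitted curve at half-maximal effect; % is scaled to controls: 0 for no effect and ±100 for the full control effect; nearly all actives have a fitted effect of over 65% in size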
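HTRF cAMP measurement after 30 min RT detection following 30 min, 37C compound treatment alongside […] (added as 300 uM solution) in G418-selected cells seeded at 2000/well and grown 16–24 h.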
Menin MLL FP FL: qHTS Assay for Inhibitors Targeting the Menin-MLL Interaction in MLL Related Leukemias: Competition With Fluorescein Labeled MLL-derived Peptide | Fluorescence polarization, fluorescein-MLL peptide displacement from menin | FP activity change, % at 61.4 µM | 290,000 tested, under 10 active; inconclusive = falling polarisation curve, or a change in total fluorescence; inactive = total fluorescence flat and polarisation flat or rising; no compound was filed as active; the % refers to the polarisation; negative = inhibition;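 also: % of control where 0% means no effect; inhibitors lower the polarisation; unlabelled MLL peptide was the positive control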
ClpP mod: qHTS Assay for Activators of ClpP; 340,000 tested, 1.9% active; purified B. subtilis ClpP, FRET peptide cleavage, 20 min; Potency, µM (top dose mostly 57.5 µM), without a hit: at the top dose activity change, negative = active; ATP-dependent Clp protease proteolytic subunit (Bacillus subtilis (strain 168)), P80244; active = well fitted falling curve with a large enough effect; inconclusive = small, poorly fitted or top-dose-only effect; inactive = no such curve, though single readings can be large or run the other way; also: potency is read from the fitted curve at half-maximal effect; the source files actives as falling curves though it sought activators and does not explain the sign; nearly all actives have a fitted effect of over 65% in size; many hits overshoot -100%
Target sequence (P80244 whole entry, looked up): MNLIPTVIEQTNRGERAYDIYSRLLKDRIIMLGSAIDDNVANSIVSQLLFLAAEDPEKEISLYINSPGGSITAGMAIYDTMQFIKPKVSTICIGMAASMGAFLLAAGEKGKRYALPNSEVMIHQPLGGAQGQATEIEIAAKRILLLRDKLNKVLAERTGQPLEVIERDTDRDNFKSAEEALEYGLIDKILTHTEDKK
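Purified B. subtilis ClpP, 10 microg/mL final in Tris/HCl pH8 with KCl, BSA, glycerol and Tween-20, cleaved an Abz/nitrotyrosine-quenched decapeptide. Fluorescence (ex 320, em 430) was read at 0 and 20 min at room temperature. Delta was normalized to 5.8 microM ADEP and DMSO/no-enzyme controls.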
TRPV1 PAM: HTS Assay for Compounds that Act as Potentiators of the Vanilloid Receptor 1 | potentiation, % at 8.33 µM | TRPV1-expressing cells, Fluo-8 calcium influx, capsaicin EC20 potentiation; host cell line not named in the record; control for the full effect not named in the record | 320,000 tested, 0.02% active; active means potentiation above 80%; inconclusive means 30% to 80%; inactive means below 30%; also: 0% is about no effect
Target sequence (Q8NER1 whole entry, looked up): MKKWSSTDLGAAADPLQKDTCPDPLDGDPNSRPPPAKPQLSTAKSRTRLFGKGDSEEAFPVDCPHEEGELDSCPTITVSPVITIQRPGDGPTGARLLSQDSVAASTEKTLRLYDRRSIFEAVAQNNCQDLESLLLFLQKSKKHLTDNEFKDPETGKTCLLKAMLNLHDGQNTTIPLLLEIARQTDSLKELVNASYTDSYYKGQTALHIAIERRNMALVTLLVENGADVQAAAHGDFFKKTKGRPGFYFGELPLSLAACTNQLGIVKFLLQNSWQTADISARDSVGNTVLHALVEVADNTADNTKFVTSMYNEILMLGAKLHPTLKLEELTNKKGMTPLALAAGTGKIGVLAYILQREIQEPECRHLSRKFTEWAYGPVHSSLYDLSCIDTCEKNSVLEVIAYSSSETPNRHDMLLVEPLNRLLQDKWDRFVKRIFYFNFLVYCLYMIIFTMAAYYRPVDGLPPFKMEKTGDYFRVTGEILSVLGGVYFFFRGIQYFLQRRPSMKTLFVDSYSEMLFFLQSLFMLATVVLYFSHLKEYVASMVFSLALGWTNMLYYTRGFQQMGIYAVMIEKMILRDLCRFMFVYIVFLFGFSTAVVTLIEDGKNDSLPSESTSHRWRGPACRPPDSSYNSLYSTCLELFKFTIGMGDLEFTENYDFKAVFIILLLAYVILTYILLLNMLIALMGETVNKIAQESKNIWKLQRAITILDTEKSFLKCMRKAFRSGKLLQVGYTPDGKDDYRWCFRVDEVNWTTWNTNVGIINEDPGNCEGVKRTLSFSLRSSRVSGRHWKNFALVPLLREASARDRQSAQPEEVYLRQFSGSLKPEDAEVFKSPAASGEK
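Fluo-8 calcium influx in TRPV1-expressing cells, kinetic read (ex 480/em 520 nm). Compound added and read 3 min for agonist activity, followed by capsaicin at EC20 final and 2 min further read for enhancement.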
Active calls of the source: *; ? = inconclusive; . = not tested or not shown; & = joins results of further samples; [ ] = another dose, or the depositor's remark.

SMILES	CtBP-E1A inh	Sfp inh	gsp agonist	gsp antagonist	Menin MLL FP FL	ClpP mod	TRPV1 PAM
COC(=O)C1C2C=CC3(CN(Cc4cccs4)C(=O)C13)O2 (stereo not drawn)	-5	7%	15%	12%	3.5	7.2%	8
CC(=O)Nc1ccc(NC(=O)COC(=O)c2ccc(S(=O)(=O)N(C)c3ccccc3)cc2)cc1	.	.	-12%	9%	.	-0.6%	.
CCOC(=O)c1c(C)n(C)c2ccc(OC)c(NC(=O)CCN3CCSCC3)c12	2	15%	1%	6%	2.2	-4.1%	4
COc1ccc(-c2nc3c(n2O)CCCC3=O)cc1OC	3	0%	?	6%	4.1	-19%	-8
NC(=O)c1ccccc1N	-1	.	.	7%	.	5.2%	.
CS(=O)c1nc(-c2ccc(Br)cc2)cc(-c2ccccc2)c1C#N (stereo not drawn)	-3	-4%	-3%	-2%	2.1	-15%	-12
CC(C)CN(CC(C)C)C(=O)Cc1coc2ccc3ccccc3c12	4	-10%	-10%	-31%	3.7	-23%	1
Cc1cc(NC(=O)CC#N)n(-c2nc3ccccc3[nH]2)n1	-7	12%	16%	?	4.7	-1.4%	-6
O=C(O)CCCC(=O)Nc1cccc([N+](=O)[O-])c1	8	15%	-15%[15.4 µM]	15%	3.8	0.5%	2
CCc1c(C)nc(SCC(=O)c2ccc(C)c(C)c2)[nH]c1=O	11	-5%	-3%	?	3.8	1.3%	3
O=C(CNC1CCCC1)Nc1ccc(N2CCCCCC2)cc1	2	?	-14%[15.4 µM]	.	-0.9	.	-10
CC(OC(=O)c1ccccc1O)C(=O)Nc1cccc(Cl)c1 (stereo not drawn)	-16	20%	2%	-7%	2.0	.	-13
COC(=O)c1sc(NC(=O)COc2cccnc2[N+](=O)[O-])c(C(=O)OC)c1C	-7	.	-4%	?	.	0.0%	1
Cc1ccc(C(=O)N2CCC(C(=O)Nc3cccc([N+](=O)[O-])c3)CC2)cc1	0	8%	-11%	-28%	-0.9	2.1%	-18
CCc1ccc(N(C(=O)c2ccco2)C(C(=O)NC2CCCC2)c2ccco2)cc1 (stereo not drawn)	-1	.	1%	-11%	.	-1.3%	.

Some of the entries above in a different format:
smiles | CtBP-E1A inh | Sfp inh | gsp agonist | gsp antagonist | Menin MLL FP FL | ClpP mod | TRPV1 PAM
Cc1cc(NC(=O)CC#N)n(-c2nc3ccccc3[nH]2)n1 | -7 | 12% | 16% | ? | 4.7 | -1.4% | -6
CC(=O)Nc1ccc(NC(=O)COC(=O)c2ccc(S(=O)(=O)N(C)c3ccccc3)cc2)cc1 | . | . | -12% | 9% | . | -0.6% | .

The list continues.
SMILES	CtBP-E1A inh	Sfp inh	gsp agonist	gsp antagonist	Menin MLL FP FL	ClpP mod	TRPV1 PAM
CC(C)c1ccc(C(O)Cc2nc3ccccc3n2C)cc1 (stereo not drawn)	4	8%	32%[15.4 µM]	8%	0.0	.	-27
CC(C)(C)N(Cc1ccccc1)C(=O)COC(=O)/C=C/c1ccc2c(c1)OCO2	11	.	?	1%	.	16%	1
CCn1c(C)c(C)c2cc(C(=O)NCCCN3CCCCC3)ccc21	-9	4%	?	-7%	5.3	-4.3%&-9.8%	2
C/C(=N\NC(=O)c1ccccc1)c1ccc(C)c([N+](=O)[O-])c1	0	0%	-5%	-2%	3.9	1.1%	-5
COc1ccc(CC(=O)Nc2cccc(C(C)=O)c2)cc1S(=O)(=O)N1CCOCC1	.	.	?	1%	.	-4.2%	12
Cc1cc(-n2cnc(-c3cn[nH]c3C)n2)no1	0	10%	-5%	16%	2.1	.	3
COc1cccc(C(=O)/C=C/c2ccc(SC)cc2)c1	-5	-6%	?	-13%	6.0	-2.2%	1
CC(=O)Oc1ccc2nc(/C=C/c3ccccc3)oc(=O)c2c1	3	24%	-32%[inhibitor]	-2%	6.3	.	?
Cc1ccc(-n2nc(C(=O)O)c3ccccc3c2=O)cc1C	2	16%	0%[15.4 µM]	-16%	2.3	0.7%	-16
COc1cccc(-c2cc3nc(C)cc(N4CCN(C(=O)c5ccoc5)CC4)n3n2)c1	?	.	-72%	.	.	-14%	.
O=C(c1ccccc1)C(CN1CCCCC1)c1ccccc1 (stereo not drawn)	0	.	5%	-5%	.	.	.
Cc1nc(CC(=O)c2ccc(O)c(C)c2O)cs1	4	5%	-15%	2%	7.5	0.2%	-5
CC(C)(C)CC(C)(C)N=C1Nc2cc(Cl)c(Cl)cc2NC12C[C@H]1CCC(=O)N3CC[C@@H](C2)[C@@H]13 (stereo partly drawn)	-5	.	.	-13%	.	-1.6%	.
CC1(C)CN(c2ccsc2C(=O)O)C1=O	-2	1%	2%[15.4 µM]	4%	-0.9	.	-25
CN(Cc1ccccc1)CC(O)COc1ccc(CNCCOc2cccnc2)cc1 (stereo not drawn)	-21	20%	-1%[15.4 µM]	6%	-7.2	.	1
CCN(CC)C(=O)C1CCCN(c2ccc([N+](=O)[O-])cc2/C=N/NC(=O)c2cccc([N+](=O)[O-])c2)C1 (stereo not drawn)	-6	-5%	-14%	-17%	5.1	0.9%	.
CCC1(O)CCCC2C3CCC4CC(=O)CCC4(C)C3C(=O)CC21C (stereo not drawn)	4	.	-12%	-28%	.	0.8%	.
COCCN(CCOC)CC(O)COC(c1ccccc1)c1ccccc1 (stereo not drawn)	4	17%	10%[15.4 µM]	7%	1.1	.	5
CCOc1ccc(C(C)C)cc1S(=O)(=O)n1nc(C)cc1C	-1	27%	-23%	-15%	1.6	1.2%	-25
CCNc1ccccc1CP(=O)(c1ccccc1)c1ccccc1O (stereo not drawn)	-16	1.4µM*	13%	-5%	.	.	-2
CCn1nc(C(=O)Nc2ccc(C)c(C)c2)c(Cl)c1Cl	-2	8%	12%	12%	-1.6	?	0
CC1(C)OC2COC(c3[nH]nc4c(=O)[nH]c(=O)[nH]c34)C2O1 (stereo not drawn)	-1	.	?	.	.	?	.
Cc1ccc2sc(C)[n+](CCC(C)S(=O)(=O)[O-])c2c1 (stereo not drawn)	-3	40µM*	4%	12%	3.7	-5.5%	6
CC(CCc1ccccc1)NC(=O)CCNC(=O)c1ccccc1Cl (stereo not drawn)	.	.	3%	1%	.	-2.8%	.
CCC(C)NC(=O)C1CC(c2ccc(OC)cc2)=NO1 (stereo not drawn)	4	11%	0%	7%	2.6	-2.7%	-3
O=C(CN1C(=O)NC2(CCCCCCC2)C1=O)Nc1c(Cl)cccc1Cl	.	.	2%	0%	.	-1.1%	.
Cc1cccc(N2C(=O)C(O)=C(C(=O)c3cccs3)C2c2ccc(F)cc2)n1 (stereo not drawn)	.	16%	?	9%	4.3	-0.8%	-2
Cc1nnc(NC(=O)CSc2nc(N)c(NC(=O)c3cccs3)c(=O)[nH]2)s1	5	?	-12%[15.4 µM]	7%	4.0	.	-7
COc1ccc2oc(C(=O)OCC(=O)Nc3ccc(C)c(S(=O)(=O)N4CCOCC4)c3)c(C)c2c1	-1	.	13%	.	.	4.5%	.
CC1CC2c3cccc(C(=O)O)c3C(=O)N2c2ccc(Cl)cc21 (stereo not drawn)	2	9%	-35%	-5%	3.3	.	-2
CC(=O)c1cccc(NC(=O)CN(C)S(=O)(=O)c2ccccc2)c1	.	24%	-2%	2%	-4.2	-2.1%	-16
O=C(Cc1ccc(NC(=O)C2CCN(C(=O)C3CC3)CC2)cc1)Nc1cccc(C(=O)N2CCCC2)c1	2	.	.	9%	.	-1.9%	.
C[C@H](NC(=O)c1nc[nH]c1C(=O)N1CCc2ccccc2C1)C(=O)OC(C)(C)C	16	-4%	.	6%	-1.6	-0.8%	-18
C#CCOCCOCCOCCNc1nc(N2CCN(C(=O)CCCCCCCCCCNC(=O)[C@@H](CCSC)n3cc(CCO)nn3)CC2)nc(N2CCN(C(=O)CCCCCCCCCCNC(=O)[C@H]([C@@H](C)CC)n3cc(CCCCCN)nn3)CC2)n1	-5	.	.	-21%	.	2.3%	0
CN1CCC2CC1c1cc(-c3ccc(C(F)(F)F)cc3)ccc12 (stereo not drawn)	-1	.	.	1%	.	1.6%	.
Cc1cc(=O)n2nc(N3CCC(C(=O)NC4CCCc5ccccc54)CC3)sc2n1 (stereo not drawn)	-20	3%	-30%	-4%	0.7	-2.4%	-2
O=c1c2c3c(sc2nc2n1CCCC2)CCCCC3	-2	-7%	0%	-4%	4.7	-1.4%	-9
O=C(COc1ccc(S(=O)(=O)N2CCCC2)cc1Cl)NC1CC1	5	16%	-4%	2%	1.4	0.8%	3
COCCCn1c(SCC(=O)N2CC(=O)Nc3ccccc32)nnc1-c1ccoc1C	6	13%	-28%	22%	2.8	-1.4%	-1
O=C(CNC(=S)N(Cc1ccccc1Cl)C1CCCC1)NCCN1CCOCC1	1	-7%	2%[15.4 µM]	1%	0.4	.	22
COc1cc(NC(=O)c2ccccc2)c(OC)cc1NC(=O)CN1CCOCC1	-6	21%	-52%[inhibitor]	-9%	0.6	5.7%	-12
CCOC(=O)c1c(CN2CCNCC2)nc2ccc(Cl)cc2c1-c1ccccc1	4	.	-5%	7%	.	1.4%	.
CC(C)Oc1ccc(CNS(=O)(=O)c2csc(C(N)=O)c2)cc1	-4	0%	-25%	5%	-4.5	-2.8%&-0.5%	1
CS(=O)(=O)N(CC(=O)Nc1ccccc1)Cc1ccc(Cl)cc1	9	21%	?	11%	2.0	-2.3%	-1
CCOC(=O)N1CCN(C(=O)Cc2ccsc2)CC1	1	22%	-111%[inhibitor]	3%	2.7	1.1%	0
Cc1ccc(N2C(=O)c3ccc(C(=O)N4CCN(c5ccc(C)c(C)c5)CC4)cc3C2=O)cc1	1	10%	-3%[15.4 µM]	7%	-3.6	-2.5%	11
CCOc1ccccc1NC(=O)CCCNC(=O)Cn1cnc2sc(C)c(C)c2c1=O	0	-9%	20%	-1%	0.5	.	15

Screening data (PubChem BioAssay)
